PINK1 modulator = modulators of PINK1 expression; PINK1 immunofluorescence, high-content cytometry, 24 h; Potency, µM (doses to about 76.6 µM), inactives show at the top dose activation (PINK1 increase), usual class: activators; actives 0.2% (n = 410,000); AID 624263; active = well fitted activation curve with a large enough effect; inconclusive = small, poorly fitted or top-dose-only effect; inactive = flat fitted curve, though single readings scatter; cell line not stated here;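 further: potency means the concentration at half of the fitted maximal effect; % of control where 0% means no effect; nearly all actives have a fitted effect of over 65% in size; a mitochondrial uncoupler was the plate control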
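Stable cell line, 250 cells/well, 12 h attachment; compounds pinned at 5 concentrations, 24 h; CCCP control. Fixed with nuclear dye, primary antibodies 12 h at 10 degrees C, secondary plus cell stain; laser-scanning cytometer read.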
ClpP mod = qHTS Assay for Activators of ClpP | Potency, µM (titrated, usually from 57.5 µM), without a hit: at the highest dose activity change, negative = active | actives 1.9% (n = 340,000) | ATP-dependent Clp protease proteolytic subunit (Bacillus subtilis (strain 168)), P80244 | purified B. subtilis ClpP, FRET peptide cleavage, 20 min; active = well fitted falling curve with a large enough effect; inconclusive = small, poorly fitted or top-dose-only effect; inactive = no such curve, though single readings can be large or run the other way; further: potency means the concentration at half of the fitted maximal effect; the source files actives as falling curves though it sought activators and does not explain the sign; nearly all actives have a fitted effect of over 65% in size; many hits overshoot -100%
Target sequence (P80244 whole entry, looked up): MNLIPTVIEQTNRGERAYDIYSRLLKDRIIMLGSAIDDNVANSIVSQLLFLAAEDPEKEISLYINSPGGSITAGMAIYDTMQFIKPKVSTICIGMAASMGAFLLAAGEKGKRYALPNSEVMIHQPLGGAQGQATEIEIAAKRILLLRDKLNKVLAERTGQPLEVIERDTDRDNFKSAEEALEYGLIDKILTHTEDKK
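FRET quenching reversal measured ClpP activation: 10 microg/mL B. subtilis ClpP at pH 8 with the FRET-FV decapeptide, read at 430 nm after 320 nm excitation. The 20-min minus 0-min signal was scaled between DMSO/no-enzyme wells and ADEP (5.8 microM final).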
gsp antag = gsp mutant antagonism. gsp-mutant cells, cAMP HTRF, 30 min; control for the full effect not named in the record. Potency, µM (titrated, usually from 76.9 µM), for the others: at the highest dose activity change, negative = inhibition, most hits filed as inhibitors. actives 0.4% (n = 340,000). AID 624288; active = falling curve of any shape with a large fitted effect; inconclusive = falling curve, mostly with a smaller effect; inactive = flat or rising curve; cell line not stated here;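 further: intracellular cAMP measured with PDE inhibitor Ro 20-1724 present during compound exposure; potency means the concentration at half of the fitted maximal effect; on the % scale 0 is the no-effect control and ±100 the full control effect; nearly all actives have a fitted effect of over 65% in size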
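HTRF cAMP read-out (cAMP-d2 plus anti-cAMP antibody-K in lysis buffer, 30 min RT). Before lysis, cells are exposed to compounds with […] for 30 min at 37C in DPBS containing Ca/Mg, BSA and Tween 20.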
gsp ag = agonists of gsp mutant (McCune-Albright syndrome); Potency, µM (doses to about 76.9 µM), for inactives: at the top dose activation (cAMP increase), actives largely listed as activators; gsp mutant cells, cAMP HTRF, 30 min; control for the full effect not named in the record; actives 0.13% (n = 340,000); AID 624287; active = well fitted activation curve with a large enough effect; inconclusive = small, poorly fitted or top-dose-only effect, or another doubt; inactive = no such curve, though single readings can be large or run the other way; cell line not stated here;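 further: phosphodiesterase inhibitor Ro 20-1724 added with compounds to block cAMP breakdown; potency means the concentration at half of the fitted maximal effect; nearly all actives have a fitted effect of over 60% in size; about a fifth of the inactives were tested at one dose only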
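Cells stably selected in G418 were plated at 2000/well, grown 16-24 hr, then given compounds in DMSO with the PDE inhibitor […] (300 uM solution added) for 30 min at 37C; cAMP was read by HTRF.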
D2 ag = human D2 receptor agonism in beta-arrestin assay; actives 0.084% (n = 360,000); DiscoveRx PathHunter D2 beta-arrestin, luminescence, 90 min; 100% = 57 uM dopamine signal; P14416; activation, % (concentration not given with the values); AID 624465; in the data active = activation above about 40%; inconclusive = about 15% to 40%; inactive = below about 15%; further: compound concentration not given in the record; the text of the record calls up to 30% inactive
Target sequence (P14416 whole entry, looked up): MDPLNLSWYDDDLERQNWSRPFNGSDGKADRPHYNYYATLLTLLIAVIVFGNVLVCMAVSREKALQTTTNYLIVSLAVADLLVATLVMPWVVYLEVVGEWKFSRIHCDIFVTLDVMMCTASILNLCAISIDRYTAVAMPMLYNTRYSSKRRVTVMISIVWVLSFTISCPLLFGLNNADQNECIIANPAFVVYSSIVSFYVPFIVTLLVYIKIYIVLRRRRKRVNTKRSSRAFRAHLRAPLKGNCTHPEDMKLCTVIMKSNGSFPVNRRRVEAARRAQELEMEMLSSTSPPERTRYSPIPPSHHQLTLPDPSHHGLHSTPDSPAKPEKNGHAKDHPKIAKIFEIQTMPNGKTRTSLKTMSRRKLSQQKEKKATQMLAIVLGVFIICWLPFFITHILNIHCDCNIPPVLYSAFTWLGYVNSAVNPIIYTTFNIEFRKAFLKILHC
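DiscoveRx PathHunter D2 beta-arrestin cells (2,100/well) attached overnight, then compound-stimulated 90 min at 37 C in HBSS/10 mM HEPES/0.1% Tween-20 buffer; beta-galactosidase complementation read by luminescence after 1 h at ambient temperature. Dopamine 57 uM final (EC100) as control.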
Sfp PPTase inh = inhibitors of Bacillus subtilis Sfp phosphopantetheinyl transferase. Biochemical Sfp PPTase activity, qHTS. Q9F4F7. actives 3.5% (n = 310,000). Potency, µM, for the others: max response, negative = inhibition, most hits filed as inhibitors; active means well fitted inhibition curve with a large enough effect; inconclusive means small, poorly fitted or top-dose-only effect, or another doubt; inactive means no such curve, though single readings can be large or run the other way;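 further: the enzyme is Sfp with the accession as filed and its product quenches rhodamine fluorescence; potency means the concentration at half of the fitted maximal effect; 0% = enzyme reaction without inhibitor and -100% = no enzyme wells; top concentration of the series not given in the record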
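Buffer: 50 mM Hepes-Na pH 7.6, 10 mM MgCl2, 0.01% Nonidet P-40, 0.01% BSA. Enzyme 15 nM, pre-exposed to compound 15 min; substrates then added and fluorescence change tracked over 30 min.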
Menin MLL FP FL = menin-MLL binding inhibition, fluorescein peptide. Fluorescence polarization, fluorescein-MLL peptide displacement from menin. FP activity change, % at 61.4 µM. 290,000 tested, under 10 active. AID 1766; inconclusive = falling polarisation curve, or a change in total fluorescence; inactive = total fluorescence flat and polarisation flat or rising; no compound was filed as active; the % refers to the polarisation; negative = inhibition;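 further: % of control where 0% means no effect; inhibitors lower the polarisation; unlabelled MLL peptide was the positive control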
* hit, by the source's call; u = inconclusive; x = not tested or not shown; ! = not active in a repeat; [ ] = remark or other dose.

SMILES	PINK1 modulator	ClpP mod	gsp antag	gsp ag	D2 ag	Sfp PPTase inh	Menin MLL FP FL
CCS(=O)(=O)N1CCC2(CC1)OCCN2S(=O)(=O)c1ccccc1	0.0%	-12%	x	-16%	-2.7	x	x
O=C(NC(=S)NCCN1CCOCC1)c1ccc(Cl)cc1Cl	-2.6%	-1.7%	4%	2%	-2.9	10%	-1.4
O=C(CN1C(=O)NC2(CCCCC2)C1=O)Nc1ccc(N2CCOCC2)cc1	-1.2%	1.1%	4%	13%	-0.9	-6%	0.4
CC(C)c1ccc(C(=O)NCCCc2ccccc2)cc1	-1.0%	-15%	-6%	-35%[inhibitor]	-5.5	0%	1.5
CC1CCC2(CC1)NC(=O)N(CC(=O)Nc1ccccc1-c1ccccc1)C2=O (centres undefined)	1.0%	x	0%	-33%	2.3	25%	-0.5
O=C(c1ccc(S(=O)(=O)Nc2cccc(C(F)(F)F)c2)cc1)N1CCN(c2ccccc2O)CC1	1.4%	-0.5%	u	-79%[inhibitor]	7.0	x	x
CCN(CC)CCCn1c2c(c(SCC(=O)Nc3cc(C)cc(C)c3)nc1=O)CCC2	0.9%	-2.6%	x	19%	0.1	x	x
CCC(=O)Nc1c2c(nn1-c1ccc([N+](=O)[O-])cc1)CS(=O)(=O)C2	-1.0%	-2.0%	7%	u	1.5	6%	5.5
CC(C)CC(NC(=O)OC(C)(C)C)c1cn([C@@H](Cc2ccc(O)cc2)C(=O)N2CCN(C(=O)OC(C)(C)C)CC2)nn1 (some centres undefined)	2.3%	0.6%	-9%	28%	2.9	13%	5.2
COc1ccc(-c2cn(Cc3ccc(C(=O)NCc4ccc(C)cc4)cc3)c(C(C)N)n2)cc1 (centres undefined)	1.5%	-11%	0%	x	-0.9	x	x
COc1ccc(-c2cc(C(F)(F)F)n3nc(C(=O)Nc4c(C)n(C)n(-c5ccccc5)c4=O)cc3n2)cc1	-1.7%	x	5%	-10%[15.4 µM]	-1.2	6%	9.1
CN1N=C(c2ccc(F)c(F)c2)CSC1=NCc1ccccc1	1.6%	x	17%	-2%[15.4 µM]	-0.6	-7%	0.5
Cc1cc(=O)oc2cc(OCC(=O)N3CCC(O)CC3)c(Cl)cc12	-1.7%	4.5%	-2%	2%	-7.2	-11%	x
NC[C@@H]1O[C@H](C23CC4CC(CC(C4)C2)C3)Cc2c1ccc(O)c2O	4.9%	-1.7%	-4%	x	50*	50µM*!	u
Fc1ccc(C(c2nnnn2C2CCCCC2)N2CCCC2)cc1 (centres undefined)	0.0%	1.7%	-7%	1%	-3.4	-5%	u
CN(C)Cc1c(O)ccc2c(=O)c(-c3ccccc3Cl)c(C(F)(F)F)oc12	-0.5%	x	2%	-62%[inhibitor]	-3.1	12%	-0.1
CCOc1ccccc1NC(=S)N1CCN(c2cccc(C)c2C)CC1	7.0%	-0.7%	-3%	2%	-1.4	9%	-0.3
COc1ccc(S(=O)(=O)NNC(=O)Cc2csc(C)n2)cc1[N+](=O)[O-]	1.4%	x	-1%	-3%[15.4 µM]	-0.3	x	x
COC(=O)c1cc(NS(=O)(=O)c2ccc(N3CCCCCC3)c([N+](=O)[O-])c2)cc(C(=O)OC)c1	-1.6%	-1.6%	-20%	17%	-13	-3%	-0.4
Cc1ccccc1-c1nnn(CC(=O)N(C)CC(=O)Nc2ccccc2C(F)(F)F)n1	-1.0%	1.1%	-6%	7%	-3.5	x	x
COc1cc(OC)cc(C(=O)Nc2ccccc2-c2nnn(CC(=O)Nc3cc(C)on3)n2)c1	4.0%	x	u	7%[15.4 µM]	-0.9	u	2.8
COc1cc(OC)cc(C(=O)NCC(=O)NC(C)CCc2ccccc2)c1 (centres undefined)	4.0%	-0.2%	1%	8%[15.4 µM]	-7.1	2%	-6.6
CCC[C@H]1CN(c2ccccc2)C(=O)[C@@H]1CC(=O)Nc1ccc(Br)cc1	1.7%	-0.5%	x	-28%	-3.8	x	x
CCCc1nc(NC2CCCCC2)c(C#N)c2c1COC(C)(C)C2	6.6%[38.3 µM]	35µM*	0%	-88%[inhibitor]	-2.3	-5%	1.8
O=C(Nc1cc(-c2nc3ncccc3o2)ccc1Cl)c1ccco1	1.4%	-17%	-19%	u	-3.1	0%	x
COc1ccccc1CCC(=O)Nc1ccc2c(c1)c(=O)n(C)n2-c1cccs1	3.6%	2.0%	x	x	-3.8	x	x
COc1ccc(/C=N/NC(=O)c2nc(Cl)c(Cl)c(N)c2Cl)cc1COc1ccc(F)cc1F	6.3%	7.9µM*	-13%	-37%[inhibitor]	-0.5	18%	0.6
CSc1ccc(/C=N/n2c(C)nnc2C)cc1	-1.2%	x	4%	20%	-1.8	12%	-1.2
O=S(=O)(O)c1cccc(N=Nc2c(O)ccc3ccccc23)c1	-0.2%	-3.0%	9%	-1%	-13	u	20
O=C(CNc1ccccc1Cl)N/N=C1\CCCc2ccccc21	7.7%	0.2%	13%	-5%	-1.4	6%	1.2
CCN(CC)CCNC(=O)C1c2ccccc2C(=O)N(CCOC)C1c1ccc(F)cc1 (centres undefined)	-2.4%	-1.4%	14%	-1%	-4.3	11%	1.5
CC(=NC1CC1)C1=C(O)c2ccccc2C1=O	-1.5%	1.4%	-3%	2%	0.3	12%	0.3
CCCOc1ccc(-c2cn3ccccc3n2)cc1[N+](=O)[O-]	4.9%	-1.6%	-11%	7%[15.4 µM]	5.2	-34%	7.3
Cc1ccccc1Nc1nc(N)nc(CSc2nnc3sc4ccccc4n23)n1	x	-0.6%	20%	29%	0.0	1%	0.1
COc1ccc2oc(C(=O)OCC(=O)N3CC(C)OC(C)C3)c(C)c2c1 (centres undefined)	-1.5%	3.6%	6%	23%	-5.1	9%	-7.2
O=C(Nc1nnc(-c2ccccc2)s1)c1ccc(F)cc1	11%	x	0%	-7%	1.9	-2%	-3.0
O=S(=O)(c1ccc(Cl)cc1Cl)n1ccc2cccnc21	1.6%	x	-6%	u	3.1	-13%	-1.1
COc1ccc(NC(=O)c2cc(F)cc(F)c2)cc1S(=O)(=O)N1CCCCC1	0.3%	x	-19%	3%	4.5	x	x
COc1ccc(-c2cc(-c3cc(F)ccc3O)[nH]n2)cc1OC	7.8%[38.3 µM]	-11%	-7%	-9%	-1.1	0%	-2.0
Cc1cc(F)ccc1S(=O)(=O)NCC(c1cccnc1)N1CCc2ccccc21 (centres undefined)	0.3%	-0.8%	-6%	u	5.7	-4%	12
CCCCN(C)CCNC(=S)Nc1ccc2nc(N3CCN(CC)CC3)cc(C)c2c1	6.8%	-3.3%	7%	-29%[15.4 µM]	-3.5	12%	-5.1
CCOC(=O)c1c(-c2ccc(C)o2)csc1N	1.3%	0.8%	1%	14%	-3.4	u	-7.8
Cc1ccc(CSc2nnc3ccc(-c4ccncc4)nn23)cc1	0.1%	-7.2%	9%	u	-1.4	14%	1.9
Cc1nnc(SCc2ccon2)n1-c1ccccc1	-2.2%[38.3 µM]	0.2%	5%	-16%	1.7	12%	2.2
CC(=O)OC(Cn1nc(C)cc1C)c1ccccc1 (centres undefined)	-1.6%	-0.8%	2%	9%	-1.9	3%	1.5
CCOC(=O)C1=CCC(c2ccccc2Cl)N(S(=O)(=O)c2ccc(C)cc2)C1 (centres undefined)	4.2%	-5.1%	x	x	-1.5	x	x
CNc1oc(-c2ccc(OCc3ccccc3)cc2)nc1C#N	u	35µM*	-10%	-36%[inhibitor]	4.6	-15%	3.5
O=c1[nH]c(CSc2ncc(C(F)(F)F)cc2Cl)nc2ccccc12	15%	x	5%	-13%	1.2	-10%	2.9
COC(=O)c1nccnc1N	-2.1%	u	1%	19%	-2.1	x	x
COc1ccccc1NC(=O)CC(c1ccc(F)cc1)c1ccco1 (centres undefined)	0.7%	0.2%	-32%	3%[15.4 µM]	-3.9	-1%	2.4
Cc1cc(CN(C)C(=O)c2ccc3nc(Cc4ccccc4F)oc3c2)on1	-1.3%	-6.1%	-1%	u	-3.2	11%	x
O=C(c1ccco1)N1CCN(C2CN(Cc3ccccc3)S(=O)(=O)C2)CC1 (centres undefined)	-0.4%	0.0%	x	x	-3.2	x	x
COc1ccc(-n2nnnc2SC(C)C(N)=O)cc1 (centres undefined)	x	0.6%	0%	3%	-0.4	-1%	2.5
CC1CCCCC1NC(=O)Cn1cnc2c1c(=O)n(C)c(=O)n2C (centres undefined)	1.3%	-0.5%	24%	u	2.2	x	x
Cc1ccc2occ(/C=N/NC(=O)c3ccc(O)cc3)c(=O)c2c1	7.0%	51%	-10%	-14%	-5.4	-8%	-9.0
COC(=O)[C@@H](NC(=O)Nc1ccc(OC)cc1)C(C)C	5.2%[38.3 µM]	-0.8%	-2%	-68%[inhibitor]	-1.7	6%	1.9
O=C(N/N=C1\CCc2ccccc21)c1ccncc1	0.7%	-0.6%	12%	10%	4.7	15%	3.9
CCCCNC(=O)c1onc(CSc2ccc(OC)cc2)c1C(=O)O	-0.8%	-0.3%	-11%	x	0.0	-17%	-0.9
O=C(Nc1ccccc1F)c1ccc(CSc2ncccn2)cc1	-1.3%	x	6%	3%[15.4 µM]	-2.5	10%	-1.3
COc1ccc(CC(=O)Nc2c3c(nn2-c2cccc(Cl)c2)CS(=O)(=O)C3)cc1	0.4%[38.3 µM]	-0.3%	-2%	-43%[inhibitor]	0.3	1%	5.9

(list continues)
SMILES	PINK1 modulator	ClpP mod	gsp antag	gsp ag	D2 ag	Sfp PPTase inh	Menin MLL FP FL
CN(C)S(=O)(=O)c1ccc(C(=O)Nc2nnc(SCc3cccc(F)c3)s2)cc1	-1.3%	-24%	4%	14%	-1.1	8%	8.3
Nc1cccc(-c2cc3ccccc3oc2=O)c1	0.5%	x	-11%	-8%[15.4 µM]	7.8	-2%	-4.5
COC(=O)[C@H](C)NC(=O)NCc1ccc(F)cc1	u	0.9%	14%	-18%	-0.5	7%	2.9
COc1ccc(O)c(-c2[nH]ncc2C(=O)c2cccc(C)c2)c1	0.5%	1.0%	-16%	0%	-0.8	12%	1.4

Assay outcomes deposited in PubChem by National Center for Advancing Translational Sciences (NCATS).
